gsp agonist: activates gsp, the McCune-Albright syndrome mutation; gsp mutant cells, cAMP HTRF, 30 min; control for the full effect not named in the record; Potency, µM (series often up to 76.9 µM), inactives show at the highest dose activation (cAMP increase), most hits filed as activators; 340,000 compounds, 0.13% hits; active = well fitted activation curve with a large enough effect; inconclusive = small, poorly fitted or top-dose-only effect, or another doubt; inactive = no such curve, though single readings can be large or run the other way; cell line not stated here;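 further: phosphodiesterase inhibitor Ro 20-1724 added with compounds to block cAMP breakdown; potency means the concentration at half of the fitted maximal effect; nearly all actives have a fitted effect of over 60% in size; about a fifth of the inactives were tested at one dose only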
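Cells in DMEM/10% FBS with G418 were pretreated with compounds in DMSO plus […] (300 uM stock) for 30 min at 37C. cAMP was measured by HTRF (cAMP-d2 plus anti-cAMP antibody-K) after 30 min at room temperature.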
TRPML1 inh: human mucolipin-1 channel inhibition; AID 624415; activity change, negative = inhibition, % (test concentration not listed); TRPML1-inducible cells, Ca2+ dye fluorescence, FDSS; active compounds read low; inhibition of EC80 agonist-evoked calcium signal; 390,000 compounds, 0.02% hits; Q9GZU1; in the data active means activity change below about -50%; inconclusive means about -30% to -50%; inactive means above about -30%;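 further: stimulus is agonist 54-4 at its EC80 concentration; on the % scale 0 is the no-effect control and ±100 the full control effect; compound concentration not given in the record; the text of the record puts the active cut at -80%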
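TRPML1-DL cells, Tet-induced overnight (~16 h, 37 °C) at 1,500 cells/well, were loaded with Ca8 no-wash dye plus quencher for 45-90 min at room temperature. Compounds were pinned during FDSS kinetic reading; agonist 54-4 at EC80 (4 uM final) then added.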
Menin MLL FP FL: displaces fluorescein MLL peptide from human menin | 290,000 tested, under 10 active | Fluorescence polarization, fluorescein-MLL peptide displacement from menin | FP activity change, % at 61.4 µM; inconclusive = falling polarisation curve, or a change in total fluorescence; inactive = total fluorescence flat and polarisation flat or rising; no compound was filed as active; the % refers to the polarisation; negative = inhibition;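 further: % of control where 0% means no effect; inhibitors lower the polarisation; unlabelled MLL peptide was the positive control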
gsp antag: antagonists of gsp mutant (McCune-Albright syndrome). Potency, µM (doses to about 76.9 µM), inactives show at the highest dose activity change, negative = inhibition, usual class: inhibitors. 340,000 compounds, 0.4% hits. AID 624288. gsp-mutant cells, cAMP HTRF, 30 min; control for the full effect not named in the record; active = falling curve of any shape with a large fitted effect; inconclusive = falling curve, mostly with a smaller effect; inactive = flat or rising curve; cell line not stated here;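 further: intracellular cAMP measured with PDE inhibitor Ro 20-1724 present during compound exposure; potency means the concentration at half of the fitted maximal effect; on the % scale 0 is the no-effect control and ±100 the full control effect; nearly all actives have a fitted effect of over 65% in size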
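HTRF cAMP read-out (cAMP-d2 plus anti-cAMP antibody-K in lysis buffer, 30 min RT). Before lysis, cells are exposed to compounds with […] for 30 min at 37C in DPBS containing Ca/Mg, BSA and Tween 20.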
TRPV1 potentiator: potentiators of human vanilloid receptor 1 (TRPV1); TRPV1-expressing cells, Fluo-8 calcium influx, capsaicin EC20 potentiation; host cell line not named in the record; control for the full effect not named in the record; potentiation, % at 8.33 µM; 320,000 compounds, 0.02% hits; active means potentiation above 80%; inconclusive means 30% to 80%; inactive means below 30%; further: 0% is about no effect
Target sequence (Q8NER1 whole entry, looked up): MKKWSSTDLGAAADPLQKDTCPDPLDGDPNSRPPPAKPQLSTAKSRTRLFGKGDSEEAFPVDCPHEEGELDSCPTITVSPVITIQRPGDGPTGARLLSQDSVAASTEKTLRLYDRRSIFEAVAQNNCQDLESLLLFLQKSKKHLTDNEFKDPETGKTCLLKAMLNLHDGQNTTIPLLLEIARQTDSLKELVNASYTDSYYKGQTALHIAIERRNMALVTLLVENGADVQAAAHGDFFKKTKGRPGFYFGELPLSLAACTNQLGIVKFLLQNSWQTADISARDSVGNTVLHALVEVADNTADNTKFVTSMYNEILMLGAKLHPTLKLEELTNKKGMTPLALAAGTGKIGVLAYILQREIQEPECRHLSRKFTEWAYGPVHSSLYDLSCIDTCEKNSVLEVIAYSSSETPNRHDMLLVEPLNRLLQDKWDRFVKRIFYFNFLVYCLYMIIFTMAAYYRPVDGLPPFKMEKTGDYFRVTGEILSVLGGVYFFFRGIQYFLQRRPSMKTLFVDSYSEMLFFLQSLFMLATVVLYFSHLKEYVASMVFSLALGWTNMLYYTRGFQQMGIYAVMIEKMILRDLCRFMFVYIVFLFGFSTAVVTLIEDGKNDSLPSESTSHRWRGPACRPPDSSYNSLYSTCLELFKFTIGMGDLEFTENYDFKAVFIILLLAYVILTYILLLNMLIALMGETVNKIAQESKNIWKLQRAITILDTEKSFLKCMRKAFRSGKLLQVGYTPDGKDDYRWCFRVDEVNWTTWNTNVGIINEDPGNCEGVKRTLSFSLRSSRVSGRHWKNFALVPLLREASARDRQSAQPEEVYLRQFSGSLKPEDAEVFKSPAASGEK
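Cells expressing TRPV1 were dye-loaded with Fluo-8 and read kinetically: 10 s baseline, 3 min after compound (agonist portion), then 2 min after EC20 capsaicin (allosteric enhancer portion). Calcium-bound dye fluorescence at 480/520 nm.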
Sfp PPTase inh: inhibitors of Bacillus subtilis Sfp phosphopantetheinyl transferase; Potency, µM, for inactives: max response, negative = inhibition, most hits filed as inhibitors; Biochemical Sfp PPTase activity, qHTS; Q9F4F7; 310,000 compounds, 3.5% hits; active means well fitted inhibition curve with a large enough effect; inconclusive means small, poorly fitted or top-dose-only effect, or another doubt; inactive means no such curve, though single readings can be large or run the other way;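 further: the enzyme is Sfp with the accession as filed and its product quenches rhodamine fluorescence; potency means the concentration at half of the fitted maximal effect; 0% = enzyme reaction without inhibitor and -100% = no enzyme wells; top concentration of the series not given in the record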
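Fluorescence-quenching assay: 15 nM Sfp-PPTase preincubated 15 min at room temperature with compound, then 5 uM rhodamine-CoA and 12.5 uM BHQ-2-labelled YbbR peptide added. Fluorescence (ex 525/em 598 nm) read at start and after 30 min; difference gives rate.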
ClpP mod: qHTS Assay for Activators of ClpP | ATP-dependent Clp protease proteolytic subunit (Bacillus subtilis (strain 168)), P80244 | purified B. subtilis ClpP, FRET peptide cleavage, 20 min | Potency, µM (highest dose often 57.5 µM), for the others: at the highest dose activity change, negative = active | 340,000 compounds, 1.9% hits | AID 651965, 2013; active = well fitted falling curve with a large enough effect; inconclusive = small, poorly fitted or top-dose-only effect; inactive = no such curve, though single readings can be large or run the other way; further: potency means the concentration at half of the fitted maximal effect; the source files actives as falling curves though it sought activators and does not explain the sign; nearly all actives have a fitted effect of over 65% in size; many hits overshoot -100%
Target sequence (P80244 whole entry, looked up): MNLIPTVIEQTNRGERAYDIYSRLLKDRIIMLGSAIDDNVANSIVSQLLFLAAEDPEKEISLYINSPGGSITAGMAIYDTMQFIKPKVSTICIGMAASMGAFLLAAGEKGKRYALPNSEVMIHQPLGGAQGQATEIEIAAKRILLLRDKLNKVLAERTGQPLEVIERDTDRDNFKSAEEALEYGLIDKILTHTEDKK
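Buffer: 100 mM Tris/HCl pH8, 100 mM KCl, 0.05% low protease BSA, 2.5% glycerol, 0.01% Tween-20. ClpP 10 microg/mL final; 20 min RT; delta FRET normalized to ADEP and DMSO controls.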
The depositor's hits bear a star; ? = inconclusive; nt = no result given; [ ] = another dose, or the depositor's remark. An unsorted share of the library. About 4.9% of those tested had a hit in this group.

SMILES | gsp agonist | TRPML1 inh | Menin MLL FP FL | gsp antag | TRPV1 potentiator | Sfp PPTase inh | ClpP mod
CCOC(=O)C1(C)NC(c2ccc(OC)c(OC)c2)C2C(=O)N(CC)C(=O)C21 (stereo not drawn) | -13% | 9 | 3.5 | 11% | 9 | 8% | 0.1%
Nc1c(Cl)ncnc1N/N=C/c1ccc(O)cc1 | ? | -6 | 0.0 | -14% | -7 | 56µM* | -5.9%
CC(C)CC(OC(=O)c1nsc(Cl)c1Cl)C(=O)NC1CCCC1 (stereo not drawn) | 8%[15.4 µM] | -7 | 3.4 | -8% | -29 | 8% | nt
Cn1c(=O)c2c(nc(CN3CCOCC3)n2CCc2ccccc2)n(C)c1=O | 27% | -9 | 0.5 | 1% | -4 | 14% | -0.1%
O=S(=O)(c1cccc(Cn2nnc(-c3ccc(F)cc3)n2)c1)N1CCOCC1 | 5%[15.4 µM] | -7 | nt | ? | -2 | 3% | 2.7%
CCc1cc(=O)oc2c(C)c(OC(C)C(=O)NCCCN3CCOCC3)ccc12 (stereo not drawn) | ? | -3 | 0.4 | 13% | 18 | 10% | 3.7%
CCOc1cc(/C=C/c2nc3ccccc3s2)ccc1OCC(=O)N1CCOCC1 | 5% | -11 | 7.9 | -40% | 0 | -14% | -17%
CC(NC(=O)CCCn1cc([N+](=O)[O-])cn1)c1ccccc1 (stereo not drawn) | -14%[15.4 µM] | -1 | -2.1 | 12% | -5 | 1% | -1.0%
COc1ccc(CNc2ccc(-c3ccccc3OC)nn2)cc1 | 24% | 31 | 4.6 | -7% | -8 | 5% | 2.8%
CCCCn1c(SCc2cc(=O)n3ccsc3n2)nc2cc(C(=O)OC)ccc2c1=O | nt | nt | 3.0 | nt | ? | 1% | nt
Cc1cc(Br)ccc1S(=O)(=O)NCc1ccccc1 | 6% | -4 | 2.2 | -10% | -9 | 9% | 0.3%
COc1cc(NC(=S)NC(=O)c2ccc(C)cc2C)ccc1NC(=O)c1cccs1 | -31% | 5 | 0.0 | 5% | -1 | 3% | 1.5%
CCN1CCN(C(c2cccs2)C(C)NC(=O)c2cccnc2)CC1 (stereo not drawn) | -5% | 22 | 2.6 | 1% | 3 | 15% | -1.1%
CC(C)(C)OC(=O)C[C@@H]1C/C=C\C[C@@H](CC(=O)N[C@@H](CO)Cc2ccccc2)C(=O)NCCOC1=O | nt | -11 | nt | 7% | nt | nt | 1.3%
Cn1c2ccccc2c2nnc(SCC(=O)NC3CC3)nc21 | ? | 39 | -3.7 | 17% | 13 | 4% | nt
Cc1ccc2nc(N3CC(=O)Nc4ccccc43)nc(-c3ccccc3)c2c1 | 13%[15.4 µM] | -4 | 11 | -5% | 1 | 8% | nt
CCN(C(=O)COC(=O)c1ccc(OC)c(S(=O)(=O)N(C)Cc2ccccc2)c1)C1CCS(=O)(=O)C1 (stereo not drawn) | -6%[15.4 µM] | 0 | nt | 0% | 16 | nt | nt
CCCn1c(SCC(=O)Nc2ccc(OC)cc2[N+](=O)[O-])n[nH]c1=O | -8%[15.4 µM] | -14 | -2.4 | -1% | 7 | 1% | -0.8%
COc1cc2c(cc1OC)[C@@H](NC(=O)CCC1CCCCC1)[C@H](O)C2 | nt | 16 | nt | 4% | nt | nt | 2.1%
CCCCCN(C(=O)COC(=O)c1ccc(Br)o1)c1c(N)n(CCCC)c(=O)[nH]c1=O | 1% | 8 | 12 | 5% | 6 | -3% | -5.1%
CC1(c2ccc3c(c2)OCO3)NC(=O)N(CC(=O)Nc2ccccc2[N+](=O)[O-])C1=O (stereo not drawn) | -19% | -5 | nt | 0% | 4 | nt | 1.3%
COC(=O)CSc1nc(-c2ccccc2)c2c(c1C#N)CCCC2 | ? | -4 | -2.4 | ? | -8 | -28% | -7.0%
COc1ccc(N/C(C)=C/C(=S)Nc2ccccc2)cc1 | -18%[15.4 µM] | 7 | 5.8 | 2% | -3 | -16% | -3.5%
Cc1ccc(/C=C/C(=O)NCc2ccc(S(N)(=O)=O)cc2)o1 | -7%[15.4 µM] | 4 | 5.0 | nt | 7 | 3.5µM* | nt
Cc1csc(SCC(=O)Nc2cc(C(N)=O)cc(C(N)=O)c2)n1 | 1%[15.4 µM] | 24 | nt | 4% | nt | nt | -2.0%
O=C(N[C@@H](Cc1ccccc1)C(=O)N1CCN(S(=O)(=O)c2ccccc2F)CC1)c1ccco1 | 12%[15.4 µM] | 31 | nt | -2% | nt | nt | 1.4%
CC(C)c1ccc(NC(=O)Cn2cccc2C2=NC(c3ccccc3)CO2)cc1 (stereo not drawn) | -61%[inhibitor] | 11 | 5.1 | -17% | 5 | 17% | 1.7%
CC1=C(C(=O)Nc2ccccc2)C(c2ccco2)n2ncnc2N1 (stereo not drawn) | -4% | -12 | 1.4 | 9% | -2 | -1% | -2.0%
COc1ccc2[nH]c(C)c(C(=O)CN3CC(C)OC(C)C3)c2c1 (stereo not drawn) | -3%[15.4 µM] | -6 | 1.0 | 1% | 12 | 1% | -0.5%
COc1ccc(NC(=O)COc2ccc(C)nc2[N+](=O)[O-])cc1S(N)(=O)=O | 22% | -11 | nt | 7% | 0 | nt | -1.7%
CC(C)C1C(=O)N(Cc2cn(Cc3ccco3)nn2)CCS(=O)(=O)N1Cc1ccc(-c2ccc(F)nc2)cc1 (stereo not drawn) | -4% | -17 | nt | nt | nt | nt | -2.4%
CCN(C(=O)CSc1nc2c(cnn2-c2ccccc2)c(=O)[nH]1)C1CCS(=O)(=O)C1 (stereo not drawn) | 17% | -6 | 5.8 | 4% | 2 | 9% | 2.7%
O=C(CNc1cc(S(=O)(=O)N2CCOCC2)ccc1N1CCCC1)N1CCc2ccccc21 | 10%[15.4 µM] | 31 | 2.1 | -9% | -1 | 5% | -1.9%
COc1ccccc1-c1cc(C(=O)N/N=C\c2cnn(C)c2C)c2ccccc2n1 | 6% | 6 | -0.5 | 1% | -4 | 9% | -2.7%
Cc1nc(N2CCC(C)CC2)c(C#N)c(C)c1[N+](=O)[O-] | -4%[15.4 µM] | -24 | 3.9 | -58% | -1 | 10% | -20%
O=C1CC(c2cccc(Br)c2)c2cc3c(cc2N1)CCC3 (stereo not drawn) | 1% | -29 | 0.7 | ? | 1 | -5% | 0.3%
CCN(CC)c1ncnc2c1cnn2Cc1ccc(C)cc1 | 8%[15.4 µM] | 6 | 3.3 | 10% | 4 | 3% | -1.9%
O=C(Nc1nonc1-c1ccc(Cl)cc1)c1ccccc1 | -9%[15.4 µM] | 12 | 0.7 | nt | 2 | 27% | nt
CC(=O)C1=C(O)C(=O)N(CC(=O)O)C1c1ccccc1Cl (stereo not drawn) | -3% | 17 | 3.5 | 5% | -3 | -6% | -4.0%
COCCn1nnnc1CN1CCC(NC(=O)c2ccc(Br)cc2)CC1 | -17% | 6 | 1.7 | 2% | -2 | 15% | -1.2%
O=C(c1cccc(Cl)c1Cl)N1CCN(c2ccccn2)CC1 | 0% | -7 | 0.4 | 6% | -19 | 5% | ?
Cc1cc(C)c(C(=O)N2CCCC(N3CCN(c4ccc(F)cc4)CC3)C2)o1 (stereo not drawn) | -2%[15.4 µM] | -7 | 2.6 | -3% | 0 | 11% | 2.4%
CCOc1ccc(/C=N/n2c(SC)nnc(C(C)(C)C)c2=O)cc1 | 2% | -2 | -2.3 | -3% | -17 | -3% | 1.8%
COC(=O)c1ccc(COc2ccccc2[N+](=O)[O-])o1 | 5% | -5 | nt | 5% | -35 | 7% | 2.0%
CC(C)(C)NC(=O)CN(C(=O)c1csnn1)c1ccccc1-c1ccccc1 | 5% | -10 | -5.2 | 4% | -1 | 0% | nt
COc1ccc(NS(=O)(=O)c2ccc(O)c([N+](=O)[O-])c2)cc1S(=O)(=O)N1CCCCC1 | 17% | -20 | nt | -10% | nt | nt | nt
CCCCOC(C)n1cc(F)c(=O)[nH]c1=O (stereo not drawn) | ? | -1 | 3.7 | 12% | -2 | 7% | 0.4%
CC(=O)Nc1c(O)c2cccc3c2n(c1=O)CCC3 | -9%[15.4 µM] | -2 | nt | 14% | nt | nt | 0.9%
CCCc1cc(=O)[nH]c(SCC(=O)N2CCN(S(=O)(=O)c3ccccc3)CC2)n1 | 18%[15.4 µM] | -6 | 0.8 | -32% | 8 | 15% | -1.0%
COc1ccc(C(=O)NCC(=O)N/N=C/c2cccnc2)cc1OC | -56%[inhibitor] | -12 | -4.1 | 15% | 7 | 6% | -2.5%
COc1ccc(N2CCN(C(CNC(=O)C(=O)NCC(OC)OC)c3ccco3)CC2)cc1 (stereo not drawn) | 28% | -2 | 3.5 | 4% | 3 | 6% | -2.0%
CCCCCCN=C1CC(C)(C)CC(=O)/C1=C(/O)CCC | -30%[15.4 µM] | ? | -0.1 | -28% | -9 | 9% | 1.4%
Cn1nc(C(F)(F)F)c(CNC(=O)C(C)(C)CCl)c1N1CCOCC1 | 26% | -8 | -2.1 | -2% | -2 | 16% | nt
O=Cc1c(Cl)nc2ccccn12 | 11%[15.4 µM] | -6 | 1.3 | 7% | 22 | 21% | nt
CN(C)CCCNS(=O)(=O)c1ccc(-n2nnc3ccccc32)c([N+](=O)[O-])c1 | -7%[15.4 µM] | 2 | 3.6 | 22% | -13 | 4% | 0.4%
O=C(O)c1cc(N/N=C/c2cccc3ccccc23)ccc1Cl | 0%[15.4 µM] | 31 | -0.8 | 12% | 3 | -1% | nt
CC(C)Oc1ccc(C(=O)Nc2c3c(nn2-c2ccccc2)CS(=O)(=O)C3)cc1 | 2% | 6 | nt | 4% | 15 | 5% | -1.5%
CCCN1CCN(CCCNC(=S)Nc2ccc(OC)cc2)CC1 | -47%[inhibitor] | -24 | 0.9 | -11% | 3 | 14% | 0.6%
Cc1cc(=O)c(C(=O)c2ccccc2)c(C)o1 | ? | -5 | nt | 3% | nt | nt | nt
Cc1c(Br)cc(C(=O)N2CCCC2)c(C)c1C | 3% | 5 | 5.6 | -36% | 14 | 7% | 0.3%
COc1ccc(-c2nc(C)ncc2N=Nc2ccccc2)cc1 | -32%[inhibitor] | -4 | 0.1 | -25% | -4 | -2% | ?
